# Screening results deposited in PubChem by National Center for Advancing Translational Sciences (NCATS).
# Vaccinia Venus: vaccinia inhibition (Venus reporter) | Potency, µM (titrated, usually from 36.5 µM), without a hit: at the highest dose activity change, negative = inhibition, most hits filed as inhibitors | AID 720580 | 0.46% of 330,000 active | Vaccinia virus Venus reporter expression, fluorescence; active means well fitted inhibition curve with a large enough effect; inconclusive means small, poorly fitted or top-dose-only effect; inactive means no such curve, though single readings can be large or run the other way; tested in A549 cells; also: nearly all actives have a fitted effect of over 30% in size; inactives centre near -10
# VACV mCherry inh: inhibitors of vaccinia virus infection (mCherry reporter signal) | 0.63% of 310,000 active | Potency, µM (highest dose often 36.5 µM), without a hit: at the highest dose activity change, negative = inhibition, actives largely listed as inhibitors | Vaccinia virus mCherry reporter infection, fluorescence; about a quarter of the inactives have no number; active = well fitted inhibition curve with a large enough effect; inconclusive = small, poorly fitted or top-dose-only effect; inactive = no such curve, though single readings can be large or run the other way; tested in A549 cells; also: nearly all actives have a fitted effect of over 35% in size; inactives centre near -10
# * marks the source's active call; other numbers are inactive results; i = inactive; u = inconclusive; x = no result given; & = joins results of further samples; [ ] = remark or other dose. % is scaled to controls: 0 for no effect and ±100 for the full control effect; potency is read from the fitted curve at half-maximal effect.
# Start of the data: the first 20 entries (preview)
# Order of values – Vaccinia Venus, VACV mCherry inh
1) c1csc(CN2CCN(Cc3cccs3)C2c2cccs2)c1
→ 10%, x
2) Cc1cccc(OCC(=O)O/N=C(\N)c2ccc(Br)cc2)c1
→ 1%, i
3) CC(C)=NN1C(=O)c2ccccc2NC1(C)C
→ -21%, -6%
4) CCCOc1ccc(/C=N/NC(=S)Nc2ccccc2[N+](=O)[O-])c(O)c1
→ u, 2.8µM*
5) Cc1nn(C)c2c1c(C(F)(F)F)cc(=O)n2C(C)C(=O)N1CCN(c2ccccc2)CC1 (stereo not drawn)
→ -13%, -8%
6) O=C(NCCCc1ccc(F)cc1)C1CCC(=O)N(CC2CCCCC2)C1 (stereo not drawn)
→ -28%, -12%
7) CCS(=O)(=O)c1ccc2oc(SCC(=O)NCc3ccccc3)nc2c1
→ -1%, 1%
8) Cc1ccc(S(=O)(=O)n2oc(=O)c(C3CCCCC3)c2N)cc1
→ -10%, u
9) Cc1ccc(S(=O)(=O)n2cccc2/C=C/[N+](=O)[O-])cc1
→ u, u
10) O=S(=O)(c1ccc(Cl)cc1)N1CCC(O)(CN2CCN(Cc3ccccc3)CC2)CC1
→ u, u
11) COc1ccc(-n2nnnc2C(c2ccccc2OC(F)(F)F)N2CCC(n3c(=O)[nH]c4ccccc43)CC2)cc1 (stereo not drawn)
→ u, -26%
12) COc1cc2c(cc1OC)[C@@H]1C(=O)c3ccc(OC)c(CC=C(C)C)c3OC1CO2 (stereo partly drawn)
→ -18%, -17%
13) NC1=NC(=O)C(CC(=O)Nc2ccc3c(c2)OCO3)S1 (stereo not drawn)
→ 5%, i
14) COc1ccc(/C=C/C(=O)NC(=S)NNC(=O)[C@H]2C[C@@H]2c2ccccc2)cc1OC
→ -17%, u
15) Cc1ccc(NC(=O)CN(C)C(=O)C2CCC2)cc1
→ -6%, -14%
16) COc1cc(OC)c(OC)cc1/C=C1\Oc2cc(OS(C)(=O)=O)ccc2C1=O
→ -1%, i
17) COc1ccccc1NS(=O)(=O)c1ccc(N/N=C/C=C/c2ccccc2[N+](=O)[O-])c([N+](=O)[O-])c1
→ -7%, -8%
18) CCOc1ccc(NC(=O)CSc2ncnc3c2sc2ccccc23)cc1
→ -19%&-1%, -22%
19) COc1ccc(OCc2nnc(SCC(=O)O)n2N)cc1
→ -6%, -11%
20) Cc1cccc(C)c1Nc1cn[nH]c1
→ 9%, 7%

# All compounds of this part, from the first entry:
# Order of values – Vaccinia Venus, VACV mCherry inh
1) c1csc(CN2CCN(Cc3cccs3)C2c2cccs2)c1
→ 10%, x
2) Cc1cccc(OCC(=O)O/N=C(\N)c2ccc(Br)cc2)c1
→ 1%, i
3) CC(C)=NN1C(=O)c2ccccc2NC1(C)C
→ -21%, -6%
4) CCCOc1ccc(/C=N/NC(=S)Nc2ccccc2[N+](=O)[O-])c(O)c1
→ u, 2.8µM*
5) Cc1nn(C)c2c1c(C(F)(F)F)cc(=O)n2C(C)C(=O)N1CCN(c2ccccc2)CC1 (stereo not drawn)
→ -13%, -8%
6) O=C(NCCCc1ccc(F)cc1)C1CCC(=O)N(CC2CCCCC2)C1 (stereo not drawn)
→ -28%, -12%
7) CCS(=O)(=O)c1ccc2oc(SCC(=O)NCc3ccccc3)nc2c1
→ -1%, 1%
8) Cc1ccc(S(=O)(=O)n2oc(=O)c(C3CCCCC3)c2N)cc1
→ -10%, u
9) Cc1ccc(S(=O)(=O)n2cccc2/C=C/[N+](=O)[O-])cc1
→ u, u
10) O=S(=O)(c1ccc(Cl)cc1)N1CCC(O)(CN2CCN(Cc3ccccc3)CC2)CC1
→ u, u
11) COc1ccc(-n2nnnc2C(c2ccccc2OC(F)(F)F)N2CCC(n3c(=O)[nH]c4ccccc43)CC2)cc1 (stereo not drawn)
→ u, -26%
12) COc1cc2c(cc1OC)[C@@H]1C(=O)c3ccc(OC)c(CC=C(C)C)c3OC1CO2 (stereo partly drawn)
→ -18%, -17%
13) NC1=NC(=O)C(CC(=O)Nc2ccc3c(c2)OCO3)S1 (stereo not drawn)
→ 5%, i
14) COc1ccc(/C=C/C(=O)NC(=S)NNC(=O)[C@H]2C[C@@H]2c2ccccc2)cc1OC
→ -17%, u
15) Cc1ccc(NC(=O)CN(C)C(=O)C2CCC2)cc1
→ -6%, -14%
16) COc1cc(OC)c(OC)cc1/C=C1\Oc2cc(OS(C)(=O)=O)ccc2C1=O
→ -1%, i
17) COc1ccccc1NS(=O)(=O)c1ccc(N/N=C/C=C/c2ccccc2[N+](=O)[O-])c([N+](=O)[O-])c1
→ -7%, -8%
18) CCOc1ccc(NC(=O)CSc2ncnc3c2sc2ccccc23)cc1
→ -19%&-1%, -22%
19) COc1ccc(OCc2nnc(SCC(=O)O)n2N)cc1
→ -6%, -11%
20) Cc1cccc(C)c1Nc1cn[nH]c1
→ 9%, 7%
21) CSc1ccc(/C=N/NC(=O)CNc2ccc3ccccc3c2)cc1
→ -8%, -26%
22) O=C(O)c1cc2cc(S(=O)(=O)O)ccc2cc1O
→ -3%, -14%
23) COc1ccccc1/C=N/NC(=O)c1cccc(OC(F)(F)C(F)F)c1
→ -2%, -18%
24) Cc1nnc(SCc2ccccc2F)n1NCc1cccs1
→ -6%, -14%
25) N#Cc1cccc(C(c2nnnn2C2CCCC2)N2CCC(Cc3ccccc3)CC2)c1 (stereo not drawn)
→ -9%, i
26) NC(=O)C1CCN(C(=O)c2cccc(NC(=O)c3nsc4ccccc34)c2)CC1
→ -19%, -10%
27) CCc1ccc(-c2nc(C)c(CCO)c(=O)[nH]2)cc1
→ -1%, i
28) N[C@@H](CO)c1cn([C@@H](Cc2cc3ccccc3[nH]2)C(=O)N2CCNCC2)nn1
→ -23%, i
29) COc1ccc(Cn2c(C)nc3c(c2=O)c2nc4ccccc4nc2n3Cc2ccco2)cc1
→ -5%, i
30) CCc1ccc2n(-c3ccc(OC)cc3)c([S-])c(C(=O)Nc3cc(C)cc(C)c3)[n+]2c1
→ -2%, 1%
31) COc1ccc(NC(=O)CCSc2nc(-c3ccc(OC)cc3)cc(C(F)(F)F)n2)cc1
→ -23%, -21%
32) CCCN(CCC)S(=O)(=O)c1ccc(C(=O)Nc2nnc(COC)o2)cc1
→ -30%, u
33) Cc1cccc(NC(=S)N2CCCCCC2)c1
→ -7%, -18%
34) Cn1c(=O)[nH]c(=O)c2c1nc(N1CCN(C(c3ccccc3)c3ccccc3)CC1)n2CCO
→ 13µM*, u
35) COC(=O)c1sc2cccc(F)c2c1S(=O)(=O)Nc1ccc(N(C)C)cc1
→ -6%, -6%
36) Cc1ccc(Cn2c(SCc3ccc(C(=O)NC4CCCC4)cc3)nc3ccncc32)cc1
→ u, u
37) CN(C)c1ccc(/C=C(\C#N)c2ccccn2)cc1
→ -9%, -28%
38) O=C1CNC(=O)c2cc(Cl)ccc2N1
→ -7%, -14%
39) Cc1cc(C(C)(C)CC(C)(C)C)ccc1OCCOCC[N+](C)(C)Cc1ccccc1
→ 10µM*, 10µM*
40) COc1ccccc1N1CCN(C(=O)CN(Cc2ccc(Cl)cc2)S(C)(=O)=O)CC1
→ -29%, -2%
41) Cc1nn(CC(=O)Nc2ccc3c(c2)oc2ccccc23)c(=O)c2ccccc12
→ -6%, -9%
42) O=C(COC(=O)CNC(=O)c1ccc(Cl)cc1Cl)NCC1CCCO1 (stereo not drawn)
→ -7%, -15%
43) CC1(C)CC(=O)C=C(c2ccc(-c3cnc4ccccc4c3)cc2)C1=O
→ u, -24%
44) COC(=O)CNC(=O)CCC(=O)N1CCN(C(c2ccccc2)c2ccccc2)CC1
→ -11%, -3%
45) Cc1ccc(/C=C2\SC(=S)N(CCCC(=O)Nc3cc(C)on3)C2=O)cc1
→ -7%, i
46) COCCCN1C(=O)c2oc3ccccc3c(=O)c2C12C(=O)N(C)c1ccccc12 (stereo not drawn)
→ 0%, -4%
47) Cc1ccc(CSc2nc3cccnc3n2Cc2ccc(C(=O)NCc3ccco3)cc2)cc1
→ -13%, -1%
48) COc1ccc(CN2CCNC(=O)C2CC(=O)NCCCn2cccn2)c(OC)c1 (stereo not drawn)
→ 7%, -3%
49) CC1CCCN(C(=O)CSc2nnc(-c3cccs3)o2)C1 (stereo not drawn)
→ -7%, -10%
50) COc1ccc(NC(=O)c2c(C)oc3ccc(O)c(CN4CCOCC4)c23)cc1
→ -4%, -5%

# Going on with the list.
# Order of values – Vaccinia Venus, VACV mCherry inh
51) Cc1ccc(C(=O)NNC(=O)c2nn(-c3ccc(F)cc3)ccc2=O)cc1
→ 13%, -9%
52) CC1=C(C(=O)N(C)C)CC(CC(=O)NCCCN(C)C)C(=O)N1CCC1=CCCCC1 (stereo not drawn)
→ -8%, i
53) COc1ccc2nc(NC(=O)CCc3nc(C4=CCN(C)CC4)no3)sc2c1
→ -12%, -9%
54) O=C(CSc1ccc2ccccc2c1)Nc1ccncc1
→ -23%, -13%
55) O=C(c1cccs1)N1CCN(C(=O)c2cn(-c3ccccc3)nc2-c2ccccc2)CC1
→ u, u
56) O=C(NC1CCCCC1)c1ccc2c(c1)N(Cc1cccc(Cl)c1)C(=O)c1ccccc1S2(=O)=O
→ -4%, -1%
57) O=C(NCc1ccccc1F)C1CCCN(S(=O)(=O)N2CCOCC2)C1 (stereo not drawn)
→ -11%, -13%
58) COc1ccccc1C(=O)n1nc(-c2cccnc2)nc1N
→ -15%, i
59) COc1cc2c(cc1OC)C1=C(C#N)CCC(=NC(=O)c3ccc(Cl)cc3)N1CC2
→ -11%, x
60) COc1ccc(NC(=S)N(CCN2CCOCC2)Cc2ccccc2F)cc1
→ -5%, -13%
61) O=C(c1cccs1)N(Cc1ccco1)c1nc(-c2ccc(F)cc2)cs1
→ -6%, i
62) CC(=O)Nc1cncc(-c2cccc(C(=O)NC3CC3)c2)n1
→ -9%, 32%[activator]
63) CCCOCC1CC2(CC(C)(c3csc(N)n3)OC2=O)C(=O)O1 (stereo not drawn)
→ -7%, -19%
64) Cc1ccc(-c2cc(-c3n[nH]c(=S)o3)c3ccccc3n2)cc1
→ -10%, -19%
65) COc1ccc(CCNC(=S)NCCc2ccc(OC)c(OC)c2)cc1OC
→ -13%&-5%, i
66) CC(=O)Nc1cc(-c2cccc(F)c2)cn2c(-c3ccc(S(C)(=O)=O)cc3)cnc12
→ 0%, i
67) Cc1cc(=O)[nH]c(/N=C(\N)Nc2ccc3c(c2)OCCO3)n1
→ -4%, -8%
68) CCOC(=O)C1(Cc2ccc(OC)cc2)CCN(C(=O)CN2CCN(CC)CC2)CC1
→ -10%, -1%
69) C[C@H](NC(=O)[C@@H]1CCCN1C(=O)[C@@H]1CCCN1C(=O)c1cccc2ccccc12)c1ccccc1
→ -7%, i
70) O=c1[nH]c(=O)n(C2CCCCCC2)c(O)c1C=NC1CCN(Cc2ccccc2)CC1
→ -14%, i

# Single records, as listed above. Order of values: Vaccinia Venus, VACV mCherry inh
# Cc1ccc(-c2cc(-c3n[nH]c(=S)o3)c3ccccc3n2)cc1 across the screens: -10%, -19%
# CC(=O)Nc1cncc(-c2cccc(C(=O)NC3CC3)c2)n1 across the screens: -9%, 32%[activator]
# O=C(c1cccs1)N(Cc1ccco1)c1nc(-c2ccc(F)cc2)cs1 across the screens: -6%, i
# CCOC(=O)C1(Cc2ccc(OC)cc2)CCN(C(=O)CN2CCN(CC)CC2)CC1 across the screens: -10%, -1%

# (continued)
# Order of values – Vaccinia Venus, VACV mCherry inh
71) CS(=O)(=O)N1CCN(C(=O)c2cc(-c3cccs3)nc3ccccc23)CC1
→ -5%, x
72) CC(C)NC(=O)NS(=O)(=O)c1cnccc1N1CCCCC1
→ -10%, x
73) O=c1oc2ccccc2c(N2CCCCC2)c1CN1CCCCC1
→ 0%, i
74) Cn1nc([N+](=O)[O-])nc1Sc1ccc(Cl)cc1
→ -17%, -10%
75) CCOC(=O)[C@H]1[C@H]2COc3ccc(C)cc3[C@@H]2N2C(=O)CN(CC3CCCO3)C(=O)[C@@]12C (stereo partly drawn)
→ -2%, i
76) O=C(NNC(=O)c1ccc(Cl)cc1Cl)Nc1ccccc1
→ -10%, -14%
77) COc1ccc(-c2cc3c(=O)n(CC(=O)NCc4ccccc4OC)ncn3n2)cc1
→ -16%, 15%
78) CCC1CCCCN1CCCNC(=O)c1ccc(CS(=O)(=O)Cc2ccccc2F)o1 (stereo not drawn)
→ -3%, x
79) Cc1ccc(Cn2ccc(=O)c(OCc3c(Cl)cccc3Cl)c2C)cc1
→ -29%, x
80) Fc1ccc(CNc2ncnc3c2cnn3-c2ccccc2)cc1
→ -23%, x
81) Cc1ccn2c(=O)cc(CSc3nnc(C)s3)nc2c1
→ -5%, -22%
82) CN(Cc1ccon1)Cc1cn(C)nc1-c1cccc(Cl)c1
→ -1%, -9%
83) Cc1ccc(C2=CN(Cc3ccccc3)CCC2=O)cc1
→ -24%, -7%
84) CCc1ccc(N(C2C=CS(=O)(=O)C2)S(=O)(=O)c2ccccc2)cc1 (stereo not drawn)
→ -22%, -27%
85) CCOc1cc(C(=O)NC2CC(C)(C)NC(C)(C)C2)cc(OCC)c1OCC
→ u, -4%
86) COc1ccc(CC(=O)Nn2c(-c3ccccc3)nc3ccccc3c2=O)cc1
→ -15%, -22%
87) COC(=O)C1=C(C)NC(=O)NC1C1CC=CCC1 (stereo not drawn)
→ -7%, -11%
88) COC(=O)C1=C(C(=O)OC)[C@@H]2N(C)c3ccccc3[C@@]23C[C@@H](CO)N(C(=O)c2cccs2)C3=N1
→ -18%, i
89) Cc1ccc(Nc2c3c(nc4ccccc24)CCC3)cc1F
→ u, 10µM*
